KAT2A inh: inhibitors of human GCN5L2 histone acetyltransferase. Q92830. GCN5L2 HAT assay, ThioGlo1 CoA-SH fluorescence. Potency, µM (highest dose often 58.9 µM), inactives show at the highest dose activity change, negative = inhibition, usual class: inhibitors. 390,000 compounds, 0.21% hits; active means well fitted inhibition curve with a large enough effect; inconclusive means small, poorly fitted or top-dose-only effect, or another doubt; inactive means no such curve, though single readings can be large or run the other way
Target sequence (Q92830 whole entry, looked up): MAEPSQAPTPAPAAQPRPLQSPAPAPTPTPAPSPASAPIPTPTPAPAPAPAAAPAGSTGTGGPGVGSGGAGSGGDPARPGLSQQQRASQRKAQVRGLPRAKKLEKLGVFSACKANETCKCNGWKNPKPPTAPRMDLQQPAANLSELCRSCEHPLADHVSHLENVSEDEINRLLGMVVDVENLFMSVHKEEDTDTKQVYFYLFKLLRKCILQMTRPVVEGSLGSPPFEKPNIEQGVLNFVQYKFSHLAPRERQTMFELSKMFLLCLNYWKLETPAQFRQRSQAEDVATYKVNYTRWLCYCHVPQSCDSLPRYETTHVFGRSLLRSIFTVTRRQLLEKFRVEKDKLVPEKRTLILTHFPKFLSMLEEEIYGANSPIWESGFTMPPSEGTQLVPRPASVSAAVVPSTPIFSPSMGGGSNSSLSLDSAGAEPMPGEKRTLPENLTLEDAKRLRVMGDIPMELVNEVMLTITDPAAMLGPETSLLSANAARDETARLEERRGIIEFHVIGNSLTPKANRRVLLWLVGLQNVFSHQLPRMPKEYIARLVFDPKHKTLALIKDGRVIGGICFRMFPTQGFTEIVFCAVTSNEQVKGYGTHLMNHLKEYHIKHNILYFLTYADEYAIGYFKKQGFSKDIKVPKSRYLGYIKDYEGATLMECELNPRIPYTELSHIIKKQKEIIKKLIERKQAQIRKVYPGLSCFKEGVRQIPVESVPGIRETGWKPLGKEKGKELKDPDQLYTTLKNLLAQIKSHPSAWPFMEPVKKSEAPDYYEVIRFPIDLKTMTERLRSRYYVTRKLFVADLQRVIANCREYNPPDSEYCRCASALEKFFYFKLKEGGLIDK
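Titration-based screen in which CoA formation is detected via maleimide probe ThioGlo1 (50uM) turning fluorescent on thiol reaction; substrates H3(1-25) 75uM and acetyl-CoA 70uM, GCN5L2 20nM, 20 min incubation at room temperature.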
Numbers without * were called inactive; ? = inconclusive; & = joins results of further samples; [ ] = another dose, or the depositor's remark. On the % scale 0 is the no-effect control and ±100 the full control effect; potency means the concentration at half of the fitted maximal effect. This is a subset, and most or all hits are left out here.

KAT2A inh | mol
-5% | CC(=O)Oc1ccc(-c2cccc(C(=O)NCCO)c2)cc1
-8% | COc1ccc(C(=O)OCC(=O)NCCN2C(=O)CSC2=O)cc1
-14% | Nc1cc(F)ccc1N1CCCCCC1
-1% | Cc1ccc(NC(=O)CCn2nc([N+](=O)[O-])cc2C)nc1
? | COc1ccc(NC(=O)c2c3c(nc4ccccc24)CCC3)cc1S(=O)(=O)N1CCOCC1
-19% | C[C@@]12C(=O)OC(=O)[C@@]1(C)[C@@H]1CC[C@@H]2O1
-1% | Cc1cc(OCC(=O)NNC(=O)c2ccncc2)cc(C)c1Cl
7% | CN(CCc1ccc(Cl)c(Cl)c1)CCN1CCCCCC1
-4% | CC(NC(=O)/C=C/c1ccccc1[N+](=O)[O-])C1CC2CCC1C2 (stereo unspecified)
-4% | COc1ccc(C(=O)OCC(=O)N(C)C2CCS(=O)(=O)C2)cc1S(=O)(=O)N(C)Cc1ccccc1 (stereo unspecified)
4% | COC(=O)COc1ccc(S(=O)(=O)NCCC2=CCCCC2)cc1Cl
-4% | COC(=O)c1sccc1NC(=O)Nc1ccc(C)c(C)c1
0% | COc1ccc(OC)c(NC(=O)NNC(=O)COc2ccc(F)cc2F)c1
-3% | O=C(CCN1CCCCC1)Nc1ccccc1
-6% | C=CCOc1ccc(/C(O)=C2\C(=O)C(=O)N(CCN(C)C)C2c2cccs2)cc1 (stereo unspecified)
1% | C[C@H](CO)N1C[C@H](C)[C@@H](CN(C)C(=O)Nc2ccc3c(c2)OCO3)Oc2c(NS(=O)(=O)c3cn(C)cn3)cccc2C1=O
-28% | COc1ccc(Nc2nc(N)c([N+](=O)[O-])c(N3CCOCC3)n2)cc1
-5%&3% | Cc1cccc(NC(=O)Nc2ccc(C)c(C)c2)n1
-2% | Cc1nn(-c2ccc(N3CCCC3)nn2)c(C)c1CCC(=O)Nc1ccc(F)cc1F
-1% | CCc1c(C)nc(N)nc1OCC(F)(F)C(F)F
? | CC(=O)c1ccc(NC(=O)c2ccc(-c3nc(CSc4ccccc4)c(C)o3)cc2)cc1
-2% | CCOc1ccc(OCC(=O)OCC(=O)Nc2ccccc2C#N)cc1
-8%[0.501 µM] | Cc1sc2ncnc(N(C)Cc3ccco3)c2c1C
-5% | CC(NC(=O)c1ccc(S(=O)(=O)Nc2ccccc2Cl)cc1)c1ccncc1 (stereo unspecified)
-5% | CSc1nc2c(C)c(C)c(C)c(C)c2[nH]1
-10% | CCC1CCCCN1C(=O)CCNS(=O)(=O)c1ccc2c(c1)oc(=O)n2C (stereo unspecified)
-7% | Cn1c(C(O)c2ccccc2)nc(Cl)c1Cl (stereo unspecified)
-4% | Cc1[nH]nc2c1C1(CCN(Cc3ccccc3)CC1)C(C#N)=C(N)O2
-5% | Cc1sc2ncn(CC(=O)Nc3cccc(S(N)(=O)=O)c3)c(=O)c2c1-c1ccccc1
-5% | CC(=O)c1nn(-c2ccc(OC(F)(F)F)cc2)nc1Nc1ccc(C)cc1
3% | CC(C)NC(=O)NC(=O)CSc1ccc(S(=O)(=O)N2CCOCC2)cn1
-3% | CCn1c(SCC(=O)NCc2cccs2)nc2c1c(=O)n(C)c(=O)n2C
-6% | O=C(CCc1nc(-c2ccc(Cl)cc2)no1)NC1CCCCC1
-2% | COC(=O)C[C@H](NC(=O)Cn1cnc2c(NCc3ccccc3)ncnc21)C(=O)OC
1% | CNC(=S)N(Cc1ccccc1)Cc1cccnc1
-5% | CCc1cccc(CC)c1NC(=O)CNCc1cccs1
-25% | Cc1ccc(-c2nnc(NC3CCCCC3)c3ccccc23)cc1S(=O)(=O)N1CCN(C)CC1
-5% | Cc1cc(NC(=O)CCC(=O)N(Cc2cccs2)C(C)(C)C(=O)NC2CCCCC2)no1
0% | N=c1c2c(n(Cc3ccc(F)cc3)c3c1CCC3)CCC2
-2% | CC1CCN(S(=O)(=O)c2ccc3c(c2)oc(=O)n3CC(=O)N2CCc3ccccc3C2)CC1

Reprinted from above (two entries):
KAT2A inh | mol
-5% | Cc1cc(NC(=O)CCC(=O)N(Cc2cccs2)C(C)(C)C(=O)NC2CCCCC2)no1
0% | N=c1c2c(n(Cc3ccc(F)cc3)c3c1CCC3)CCC2

Carrying on:
KAT2A inh | mol
-3% | CC(=O)Nc1ccc(NC(=O)C(C)OC(=O)CC23CC4CC(CC(Br)(C4)C2)C3)cc1 (stereo unspecified)
1% | CCOC(=O)C1CCN(C(=O)COc2cccc3ccccc23)CC1
-2% | COC(OC)c1nc(SCC(=O)Nc2cccc(Cl)c2)ncc1C(=O)O
-13% | CC(C)c1ccc(N(C(=O)c2ccc3c(c2)OCO3)C2C=CS(=O)(=O)C2)cc1 (stereo unspecified)
-8% | COc1cccc(CC(=O)NCCCSc2ccccc2)c1
0% | Cc1ccc(CCN2C(Nc3ccccc3)=NC[C@@H]2C)cc1
-1% | CCOc1ccc(NC(=O)C2CC(=O)N(CCc3ccc(OC)c(OC)c3)C2)cc1OCC (stereo unspecified)
-7% | O=C(C1CCC(CNc2c(N3CCOCC3)c(=O)c2=O)CC1)N1CCN(c2ccccc2)CC1 (stereo unspecified)
1% | O=C(Nc1ccc(-c2nc3ccccc3o2)cc1)C1CCCO1 (stereo unspecified)
-4% | CCOC(=O)c1ccc(CSc2n[nH]c(C)n2)o1
-1% | CCCCOC(=O)C1[C@H]2C(=O)N(CCc3ccccc3)C[C@]23C=C[C@H]1O3 (stereo partly specified)
1% | Cc1ccccc1Nc1c(N)c(=O)oc2ccccc12
-3% | O=C(Nc1nnc(-c2cc(Cl)ccc2Cl)o1)C1=COCCO1
-2% | COc1ccc(CCNC(=O)CSc2nnc(Cn3c(=O)sc4ccccc43)n2C)cc1OC
-20%[0.501 µM] | CC(C)=CC1C=C(C)C(C)C2C(=O)NNC(=O)C12 (stereo unspecified)
-3% | CCO[C@@H]1OC(C(=O)O)=C[C@H](c2ccc(Br)cc2)[C@H]1CCCO
-4% | Cc1ccnc(NC(=O)CC(c2ccccc2)c2ccccc2)n1
? | CCC(=O)c1ccc(N2CCN(C(=O)Cc3ccccc3)CC2)c(F)c1
66%[activator] | CCc1ccc(-c2nc(NC(=O)c3ccc(OCC(=O)Nc4ccc(F)cc4)c(OC)c3)sc2C)cc1
20% | Cc1nc2cccnc2n1C1CCN(S(C)(=O)=O)CC1
1% | Cc1cccc(N(CC(=O)NC2CCCCC2)C(=O)c2ccc(C)s2)c1
-6% | O=C(Nc1ccc2c(c1)OCO2)C1CCN(Cc2cnn(-c3ccccc3)c2-n2cccc2)CC1
-12% | CCc1ccccc1NS(=O)(=O)c1ccc2[nH]cc(C(=O)N(CC)Cc3ccccc3)c(=O)c2c1
3% | C[C@H]1COC(=O)[C@@H](NC(=O)OCC2c3ccccc3-c3ccccc32)C/C=C\C[C@H](CC(=O)NCCO)C(=O)N1
2% | Cn1nnnc1SCCNCc1ccccc1OCc1ccccc1
-7% | Cc1cc(C)c2nc(N3CCCC(C(=O)NC4CCCC4)C3)sc2c1 (stereo unspecified)
0% | Nc1cccc(S(=O)(=O)NC2=NCCC2)c1
-12% | CC(=O)Nc1ccc(NC(=O)CSc2nnc(NC(=O)c3ccco3)s2)cc1
-2% | COc1ccccc1-n1cnnc1SCC(=O)N1CC(=O)Nc2ccccc21
-3% | CC(=O)Nc1ccc(N(C(=O)c2ccco2)C(C(=O)NC2CCCC2)c2ccncc2)cc1 (stereo unspecified)
-4% | CCCCCNC(=O)c1c[nH]c2ccc(S(=O)(=O)N3CCC(C)CC3)cc2c1=O
-13% | COc1ccc(C(=O)N(CCCO)Cc2cc3c(C)ccc(C)c3[nH]c2=O)cc1OC
3% | Nc1ncnc2nc(Sc3ccc(Cl)cc3)[nH]c12
0% | CC1CC(C)(C)CC2(C1)NC(=O)N(CC(=O)NC1CCCc3ccccc31)C2=O (stereo unspecified)
3% | CCOC(=O)C(Cc1cc(C(C)=O)ccc1OCC)C(=O)OCC
-1% | CCc1nnc(NC(=O)CN2C(=O)N(C)C3(CCCCC3)C2=O)s1
-3% | COc1ccc(NC(=O)C2CCCN(S(=O)(=O)c3cccnc3)C2)c(OC)c1 (stereo unspecified)
-1% | CS(=O)(=O)N(CC(=O)N1CCN(c2ccccc2)CC1)Cc1ccc(Cl)cc1
2% | CCOc1ccc(OCC(=O)NCCS(=O)(=O)N2CCN(c3ccccc3F)CC2)cc1
-10% | CCOC(=O)C1C2C=CC3(CN(CCc4ccccc4)C(=O)C13)O2 (stereo unspecified)
0% | COc1ccc(-c2nc3ccccc3o2)cc1NC(=O)COc1cc(C)cc(C)c1
-2% | CCC(C)CCN1C(N(C)C)=NC[C@@H]1CC(C)C (stereo partly specified)
-26% | Cc1ccccc1C(=O)NC1CCN(C(=O)N(c2ccccc2)c2ccccc2)CC1
3% | COCCNc1ncnc2onc(-c3ccc(F)cc3)c12
1% | Cc1ccc2cc(C#N)c(SCC(=O)NCC3CCCO3)nc2c1 (stereo unspecified)
24% | C=C(C)CNC(=S)NNC(=O)c1ccc(Br)cc1
-1% | CCOC(=O)c1c(S(=O)(=O)NCC(=O)Nc2cccc(SC)c2)c(C)n(C)c1C
-5% | O=C(Nc1ccncc1)c1ccccc1-c1ccccc1
0% | Cc1cc(NC(=O)CSc2n[nH]c(CC(C)C)n2)no1
-18%[21.4 µM] | C[C@H](O)[C@@H]1C(=O)N2C(C(=O)O)=C(SCCN=CN)C[C@@H]12
-6% | COc1ccc(CCNC(=O)CC2SC(=NCc3ccccc3OC)NC2=O)cc1 (stereo unspecified)
-4% | Cc1nc2ccccn2c1C(=O)NNS(=O)(=O)c1ccc(Cl)cc1
1% | O=C(NCCCc1ccccc1)C1CCN(S(=O)(=O)c2ccc(F)cc2)CC1
-16% | COc1cc(C(=O)N/N=C/c2cn(Cc3cccc(F)c3)c3ccccc23)ccc1O
-2% | COc1ccc(N2CC(C(=O)N(C)CC(=O)Nc3ccc(Cl)c(C(F)(F)F)c3)CC2=O)c(OC)c1 (stereo unspecified)
0% | Cc1cc(C(=O)NNc2c(Cl)cccc2Cl)n(C(C)(C)C)n1
-4% | CN(C)CCCNC(=S)N1CCN(c2nc(-c3ccccc3)cs2)CC1
10% | Cc1cc(C)c(C#N)c(N2CCSCC2)n1
-5% | COCCNC(=O)/C(C#N)=C\c1ccc(CNS(=O)(=O)c2ccccc2)o1
1% | Cc1ccc(N(C(=O)CC2NC(=O)NC2=O)C2(C(=O)NC3CCCC3)CCCCC2)cc1 (stereo unspecified)

Already shown: an excerpt of the list.
KAT2A inh | mol
1% | Cc1ccc2cc(C#N)c(SCC(=O)NCC3CCCO3)nc2c1 (stereo unspecified)
24% | C=C(C)CNC(=S)NNC(=O)c1ccc(Br)cc1
-1% | CCOC(=O)c1c(S(=O)(=O)NCC(=O)Nc2cccc(SC)c2)c(C)n(C)c1C
-5% | O=C(Nc1ccncc1)c1ccccc1-c1ccccc1
0% | Cc1cc(NC(=O)CSc2n[nH]c(CC(C)C)n2)no1
-18%[21.4 µM] | C[C@H](O)[C@@H]1C(=O)N2C(C(=O)O)=C(SCCN=CN)C[C@@H]12
-6% | COc1ccc(CCNC(=O)CC2SC(=NCc3ccccc3OC)NC2=O)cc1 (stereo unspecified)
-4% | Cc1nc2ccccn2c1C(=O)NNS(=O)(=O)c1ccc(Cl)cc1
1% | O=C(NCCCc1ccccc1)C1CCN(S(=O)(=O)c2ccc(F)cc2)CC1
-16% | COc1cc(C(=O)N/N=C/c2cn(Cc3cccc(F)c3)c3ccccc23)ccc1O
-2% | COc1ccc(N2CC(C(=O)N(C)CC(=O)Nc3ccc(Cl)c(C(F)(F)F)c3)CC2=O)c(OC)c1 (stereo unspecified)
0% | Cc1cc(C(=O)NNc2c(Cl)cccc2Cl)n(C(C)(C)C)n1
-4% | CN(C)CCCNC(=S)N1CCN(c2nc(-c3ccccc3)cs2)CC1
10% | Cc1cc(C)c(C#N)c(N2CCSCC2)n1
-5% | COCCNC(=O)/C(C#N)=C\c1ccc(CNS(=O)(=O)c2ccccc2)o1
1% | Cc1ccc(N(C(=O)CC2NC(=O)NC2=O)C2(C(=O)NC3CCCC3)CCCCC2)cc1 (stereo unspecified)

The listing continues:
KAT2A inh | mol
-6% | CC(=O)N1CCC(C(=O)NC2CCCc3c2cnn3-c2cc(F)cc(F)c2)CC1 (stereo unspecified)
-1% | O=C(O)c1cc(NS(=O)(=O)c2ccc(F)cc2)cc(NS(=O)(=O)c2ccc(F)cc2)c1
-4% | O=C(COC(=O)C1=COCCO1)NCc1ccc(Cl)cc1
-4% | CCOC(=O)CC(NC(=O)Cc1ccccc1)c1ccccc1Cl (stereo unspecified)
-5% | Cc1nn(-c2ccccc2)c(C)c1/C=N/NC(=O)CSc1nnc(SCc2cccc3ccccc23)s1
-3% | CC1CCCCN1S(=O)(=O)c1csc(C(N)=O)c1 (stereo unspecified)
-3% | O=C(NC(N1CCOCC1)C(Cl)(Cl)Cl)c1ccc(Br)cc1 (stereo unspecified)
-3% | CCOC(=O)CN1C(=O)NC(C)(c2ccc(OC(F)F)cc2)C1=O (stereo unspecified)
-2% | COC(=O)c1ccc(OS(=O)(=O)N(C)C)cc1
1% | CCCOc1cccc(-c2nnc(N)s2)c1
1% | COCC(=O)Nc1nnc(SCC(=O)N2C(C)CCCC2C)s1 (stereo unspecified)
-2% | O=Cc1c(C(=O)O)n(CC(=O)O)c2ccccc12
-8% | CC(C)NS(=O)(=O)c1ccc(N2C(=O)c3ccccc3C2=O)cc1
-8% | Cc1onc(-c2ccccc2Cl)c1C(=O)Oc1ccccc1F
17%&-5% | COc1ccc(NC(=O)CC2Nc3cccc4cccc(c34)NC2=O)cc1 (stereo unspecified)
-6% | COCCCNC(=S)N(CCO)Cc1cc2cc3c(cc2[nH]c1=O)OCO3
-11% | CCc1ccc(S(=O)(=O)Nc2cc3c(cc2C)n(C)c(=O)c(=O)n3C)cc1
3% | COc1ccc(NC(=O)C2=C(C)NC(=O)NC2c2cccs2)c(OC)c1 (stereo unspecified)
1% | COc1cccc(C(=O)Nc2cccc(OC(C)=O)c2)c1
-2% | Cc1nc2cc(C(F)(F)F)ccc2n1C1CCN(CC(=O)N2CCOCC2)CC1
-9% | COc1ccc(CN(C(=O)c2oc3cc(C)c(C)cc3c2C)C2CCS(=O)(=O)C2)cc1OC (stereo unspecified)

Source: PubChem
